Assay outcomes as filed in PubChem BioAssay.
Sfp PPTase inh: Sfp phosphopantetheinyl transferase inhibition; Q9F4F7; Biochemical Sfp PPTase activity, qHTS; Potency, µM, for the others: max response, negative = inhibition, usual class: inhibitors; hit rate 3.5% among 310,000; active = well fitted inhibition curve with a large enough effect; inconclusive = small, poorly fitted or top-dose-only effect, or another doubt; inactive = no such curve, though single readings can be large or run the other way;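 also: the enzyme is Sfp with the accession as filed and its product quenches rhodamine fluorescence; potency is read from the fitted curve at half-maximal effect; 0% = enzyme reaction without inhibitor and -100% = no enzyme wells; top concentration of the series not given in the record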
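Buffer: 50 mM Hepes-Na pH 7.6, 10 mM MgCl2, 0.01% Nonidet P-40, 0.01% BSA. Enzyme 15 nM, pre-exposed to compound 15 min; substrates then added and fluorescence change tracked over 30 min.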
TRPML1 blocker: human mucolipin-1 channel inhibition; Q9GZU1; activity change, negative = inhibition, % (test concentration not listed); AID 624415; hit rate 0.02% among 390,000; TRPML1-inducible cells, Ca2+ dye fluorescence, FDSS; active compounds read low; inhibition of EC80 agonist-evoked calcium signal; in the data active means activity change below about -50%; inconclusive means about -30% to -50%; inactive means above about -30%;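 also: stimulus is agonist 54-4 at its EC80 concentration; % is scaled to controls: 0 for no effect and ±100 for the full control effect; compound concentration not given in the record; the text of the record puts the active cut at -80%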
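Calcium fluorescence in TRPML1-DL cells induced overnight with Tet: a 110 s read after compound pin addition, then a 110 s antagonist read after challenge with 54-4 at 4 uM final (EC80).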
gsp antag: antagonists of gsp mutant (McCune-Albright syndrome). gsp-mutant cells, cAMP HTRF, 30 min; control for the full effect not named in the record. Potency, µM (titrated, usually from 76.9 µM), inactives show at the highest dose activity change, negative = inhibition, usual class: inhibitors. hit rate 0.4% among 340,000. AID 624288; active = falling curve of any shape with a large fitted effect; inconclusive = falling curve, mostly with a smaller effect; inactive = flat or rising curve; cell line not stated here;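 also: intracellular cAMP measured with PDE inhibitor Ro 20-1724 present during compound exposure; potency is read from the fitted curve at half-maximal effect; % is scaled to controls: 0 for no effect and ±100 for the full control effect; nearly all actives have a fitted effect of over 65% in size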
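HTRF cAMP measurement after 30 min RT detection following 30 min, 37C compound treatment alongside […] (added as 300 uM solution) in G418-selected cells seeded at 2000/well and grown 16–24 h.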
Menin MLL FP FL: inhibitors of human menin-MLL interaction, wild-type MLL peptide; Fluorescence polarization, fluorescein-MLL peptide displacement from menin; FP activity change, % at 61.4 µM; 290,000 tested, under 10 active; inconclusive = falling polarisation curve, or a change in total fluorescence; inactive = total fluorescence flat and polarisation flat or rising; no compound was filed as active; the % refers to the polarisation; negative = inhibition;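 also: % of control where 0% means no effect; inhibitors lower the polarisation; unlabelled MLL peptide was the positive control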
TRPV1 potentiator: potentiators of human vanilloid receptor 1 (TRPV1) | Q8NER1 | TRPV1-expressing cells, Fluo-8 calcium influx, capsaicin EC20 potentiation; host cell line not named in the record; control for the full effect not named in the record | potentiation, % at 8.33 µM | hit rate 0.02% among 320,000; active means potentiation above 80%; inconclusive means 30% to 80%; inactive means below 30%; also: 0% is about no effect
Target sequence (Q8NER1 whole entry, looked up): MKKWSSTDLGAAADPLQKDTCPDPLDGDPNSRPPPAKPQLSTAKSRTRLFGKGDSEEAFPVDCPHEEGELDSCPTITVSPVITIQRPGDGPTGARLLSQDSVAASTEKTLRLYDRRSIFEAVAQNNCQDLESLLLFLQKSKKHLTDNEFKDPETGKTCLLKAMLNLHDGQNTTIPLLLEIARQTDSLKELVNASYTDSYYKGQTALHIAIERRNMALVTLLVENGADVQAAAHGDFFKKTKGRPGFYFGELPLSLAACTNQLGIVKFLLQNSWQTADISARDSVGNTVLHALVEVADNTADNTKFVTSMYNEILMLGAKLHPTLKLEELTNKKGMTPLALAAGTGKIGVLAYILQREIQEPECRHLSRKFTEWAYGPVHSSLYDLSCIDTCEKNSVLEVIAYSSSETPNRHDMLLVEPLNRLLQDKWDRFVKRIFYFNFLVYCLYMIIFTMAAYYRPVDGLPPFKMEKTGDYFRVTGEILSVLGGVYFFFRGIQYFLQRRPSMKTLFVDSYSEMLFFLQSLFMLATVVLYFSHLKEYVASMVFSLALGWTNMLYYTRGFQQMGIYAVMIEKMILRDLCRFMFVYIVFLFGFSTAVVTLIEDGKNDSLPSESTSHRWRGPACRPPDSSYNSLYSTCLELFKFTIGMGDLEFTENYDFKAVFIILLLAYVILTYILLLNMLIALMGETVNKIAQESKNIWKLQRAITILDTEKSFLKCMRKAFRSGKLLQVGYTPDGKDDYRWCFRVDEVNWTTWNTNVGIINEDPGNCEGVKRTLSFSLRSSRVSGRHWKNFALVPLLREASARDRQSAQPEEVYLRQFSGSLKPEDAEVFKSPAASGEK
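TRPV1-expressing cells were cultured overnight at 35.5C and loaded with Fluo-8 calcium dye for 40 to 90 min at room temperature. After a 10 s baseline, compound was added and calcium influx was read kinetically for 3 min (ex 480/em 520 nm).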
gsp agonist: agonists of gsp mutant (McCune-Albright syndrome); Potency, µM (titrated, usually from 76.9 µM), without a hit: at the highest dose activation (cAMP increase), actives largely listed as activators; AID 624287; gsp mutant cells, cAMP HTRF, 30 min; control for the full effect not named in the record; hit rate 0.13% among 340,000; active = well fitted activation curve with a large enough effect; inconclusive = small, poorly fitted or top-dose-only effect, or another doubt; inactive = no such curve, though single readings can be large or run the other way; cell line not stated here;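 also: phosphodiesterase inhibitor Ro 20-1724 added with compounds to block cAMP breakdown; potency is read from the fitted curve at half-maximal effect; nearly all actives have a fitted effect of over 60% in size; about a fifth of the inactives were tested at one dose only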
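Cells stably selected in G418 were plated at 2000/well, grown 16-24 hr, then given compounds in DMSO with the PDE inhibitor […] (300 uM solution added) for 30 min at 37C; cAMP was read by HTRF.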
ClpP mod: qHTS Assay for Activators of ClpP. hit rate 1.9% among 340,000. purified B. subtilis ClpP, FRET peptide cleavage, 20 min. AID 651965, 2013. Potency, µM (titrated, usually from 57.5 µM), for inactives: at the top dose activity change, negative = active. ATP-dependent Clp protease proteolytic subunit (Bacillus subtilis (strain 168)), P80244; active = well fitted falling curve with a large enough effect; inconclusive = small, poorly fitted or top-dose-only effect; inactive = no such curve, though single readings can be large or run the other way; also: potency is read from the fitted curve at half-maximal effect; the source files actives as falling curves though it sought activators and does not explain the sign; nearly all actives have a fitted effect of over 65% in size; many hits overshoot -100%
Target sequence (P80244 whole entry, looked up): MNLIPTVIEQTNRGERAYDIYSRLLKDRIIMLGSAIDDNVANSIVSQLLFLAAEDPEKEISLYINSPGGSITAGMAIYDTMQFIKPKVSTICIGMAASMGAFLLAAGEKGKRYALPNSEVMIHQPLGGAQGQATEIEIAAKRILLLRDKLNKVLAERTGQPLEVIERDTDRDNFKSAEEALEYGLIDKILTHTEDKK
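FRET quenching reversal measured ClpP activation: 10 microg/mL B. subtilis ClpP at pH 8 with the FRET-FV decapeptide, read at 430 nm after 320 nm excitation. The 20-min minus 0-min signal was scaled between DMSO/no-enzyme wells and ADEP (5.8 microM final).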
* hit, by the source's call; ? = inconclusive; nt = no result given; & = joins results of further samples; [ ] = another dose, or the depositor's remark. Hits appear at their usual frequency. About 4.9% of those tested had a hit in this group.

SMILES | Sfp PPTase inh | TRPML1 blocker | gsp antag | Menin MLL FP FL | TRPV1 potentiator | gsp agonist | ClpP mod
CCOc1ccc(CNC(=O)CN2C(=O)CSc3ccc(S(=O)(=O)N4CCOCC4)cc32)cc1 | nt | -4.3 | nt | nt | nt | 19.2% | 1.8%
CCCCNC(=S)NC1CCCC1 | 0.0% | 24.4 | 8.5% | ? | -37.3 | 2.9% | -2.0%
O=C(Nc1ccccc1)c1sc(Cl)nc1-c1ccccc1 | 6.7% | -0.5 | -4.9% | 3.9 | 8.3 | 6.6%[15.4 µM] | -1.0%
O=C(Cn1cnc(Cl)c1Cl)c1ccc(F)cc1 | 11.1% | -11.3 | -9.1% | 9.2 | 10.9 | -6.2% | nt
Cc1cc(C)c(S(=O)(=O)N(C)CC(=O)N2CCCC2)c(C)c1 | nt | 6.9 | nt | nt | nt | -16.3% | -2.0%
Cn1c(SCC(=O)Nc2ccc(N3CCOCC3)cc2)nnc1-c1ccco1 | 12.6% | 2.5 | -10.7% | nt | 7.5 | -4.1% | nt
O=C(Nc1cc(S(=O)(=O)N2CCCCC2)ccc1Cl)C1=NN(c2ccccc2)C(=O)CC1 | -4.9% | 39.2 | -14.5% | -3.3 | 8.4 | -13.1% | nt
CCOc1ccc(NC(=O)CC2C(=O)N(c3ccc(OCC)cc3)C(=S)N2C2CC2)cc1 (configuration not stated) | 12.4% | -5.6 | -4.4% | nt | 19.5 | ? | 1.0%
COc1ccc(NC(=O)CSc2nnc(Cn3c(=O)sc4ccccc43)n2C)cc1OC | 16.7% | -7.9 | 4.5% | -0.8 | -0.6 | -54.4%[inhibitor] | -0.1%
O=C(c1ccc(F)cc1)C(C(=O)N1CCCCC1)n1ccccc1=O (configuration not stated) | 18.0% | -6.7 | 6.2% | -1.8 | -5.5 | -31.5% | nt
O=S(=O)(NCC(O)c1ccccc1)c1ccc(-c2ccccn2)s1 (configuration not stated) | -1.7% | 10.3 | -4.8% | 1.1 | 0.9 | -3.0%[15.4 µM] | nt
CCOC(=O)CNC(=S)N(CCCN1CCCCC1)Cc1cccs1 | 3.9% | 14.6 | 7.7% | 0.9 | 0.4 | 11.8%[15.4 µM] | nt
CC(NC(=O)CCSCCC(=O)NC(C)c1ccccc1)c1ccccc1 (configuration not stated) | 4.9% | -12.2 | 2.6% | -0.3 | -26.6 | 2.4% | -0.5%
O=C(Nc1ccccc1F)c1ccc2snnc2c1 | 6.6% | 5.1 | 4.7% | -3.7 | -16.6 | 1.3% | -4.1%
COc1ccc(CCNC(=O)c2ccccc2NC(=O)CN2CCN(c3ccccc3O)CC2)cc1 | nt | 4.2 | -37.5% | nt | 6.3 | ? | -1.5%
Cc1cc(C)nc(NC2=NCCN2C(=O)NC2CCCCC2)n1 | 6.2% | 3.0 | -15.9% | 3.2 | 1.1 | ? | 1.8%
COc1ccc2nc(NC(=O)Cn3cnc4c(=O)n(C)c(=O)n(C)c43)sc2c1 | -7.7% | 7.0 | 0.2% | 4.4 | -3.8 | 0.4% | 0.0%
c1ccc(CSc2n[nH]c(-c3ccco3)n2)cc1 | 19.0% | -2.7 | 11.8% | 3.0 | 0.3 | -3.4% | -7.4%
COc1ccc(CCn2c(-c3ccccc3)nc3c(c(=O)c4ccccc4n3C)c2=O)cc1 | 2.6% | nt | nt | 3.8 | -0.7 | nt | nt
C=CCn1c(SCC(=O)N2CCc3ccccc3C2)nnc1-c1ccncc1 | 8.0% | 1.5 | -0.5% | 4.6 | ? | 6.2%[15.4 µM] | -1.8%
Cc1cccc(/C=C2\Sc3ccc(C(=O)N4CCOCC4)cc3N(C)C2=O)c1 | -9.8% | 8.9 | -26.2% | nt | 6.7 | -2.0% | 1.0%
COc1cccc(OCC(Cn2cnc3ccccc32)OC(C)=O)c1 (configuration not stated) | 22.0% | 5.6 | -9.2% | 1.2 | 4.1 | 19.1% | 1.5%
C[N+](C)(C)CCCCCCC(=O)/C=N/O | 1.0% | 8.4 | 11.1% | 5.8 | -15.1 | 2.7% | 0.7%
Cc1ccc(NC(=O)CN2C(=O)NC(Cc3ccccc3)C2=O)cc1 (configuration not stated) | 0.4% | 7.2 | 9.5% | 0.9 | 5.2 | 13.9% | -1.3%
O=C(NCC(=O)N1CCN(S(=O)(=O)c2ccc3c(c2)OCCO3)CC1)c1ccccc1Cl | nt | 3.1 | -2.3% | nt | 8.5 | -37.1%[inhibitor] | -1.3%
O=C(O)c1cccc(-c2ccc(/C=N/n3cnc4sc5c(c4c3=O)CCCC5)o2)c1 | 10.1% | nt | nt | 4.9 | 26.1 | nt | nt
CCOC(=O)N/N=C\c1ccc(-c2cc(Cl)ccc2Cl)o1 | 9.7% | -13.6 | -13.5% | 4.8 | 6.7 | -23.2% | nt
COC(=O)[C@@]12CCCCN1[C@H](c1ccc(-c3cccc(Cl)c3)c(OC)c1)[C@@H]1C(=O)N(C)C(=O)[C@@H]12 | nt | 56.4 | -19.4% | nt | 0.1 | 20.3% | -15.6%
CCCCc1nc2sc3c(=O)n(N)cnc3c2c2c1CCCC2 | 36.3%[activator] | -0.2 | -0.3% | 1.2 | -6.2 | -2.8% | 0.0%
CC(C)(C)C(=O)N1CCN(c2nc3ccccc3o2)CC1 | 2.4% | 26.8 | -2.2% | -1.9 | -20.7 | -13.9% | nt
COC(=O)c1sccc1NC(=S)N1CCCCC1 | -24.5% | 6.6 | -14.5% | 1.4 | 6.0 | 9.8%[15.4 µM] | -1.1%
COc1ccc(CNC(=O)C2CCCN(S(=O)(=O)N3CC(C)CC(C)C3)C2)c(OC)c1 (configuration not stated) | 14.6% | -16.7 | -12.9% | nt | -6.7 | -27.6% | -2.2%
CC(C)(C)NC(=O)C(c1cccs1)N(CC1CCCO1)C(=O)Cn1nnc(-c2cccs2)n1 (configuration not stated) | 2.5% | -12.5 | -2.9% | 2.7 | 3.9 | -46.6%[inhibitor] | -1.7%
O=C(CCCc1c[nH]c2ccccc12)NCc1ccccc1F | 11.6% | 35.6 | 2.9% | -0.4 | -5.8 | 2.9% | nt
O=C(Cn1cnc2ccccc2c1=O)NCCC(=O)N1CCN(c2ccccc2)CC1 | -3.6% | 23.2 | 6.1% | 0.0 | 0.5 | ? | -2.2%
O=C(CCNC(=O)N1CC(=O)Nc2ccccc21)NCc1ccccc1 | nt | 3.4 | nt | nt | nt | -12.9% | 1.4%
Fc1ccccc1/C=N/Nc1nn[nH]n1 | ? | 25.8 | -8.1% | 1.2 | 11.2 | 30.8% | 0.2%
NC(=S)Nc1cc(Cl)cc(Cl)c1 | 5.2% | -11.2 | 11.3% | -1.4 | 18.4 | 2.6%[15.4 µM] | nt
CC(C)c1nc2oc3c(N4CCNCC4)ncnc3c2c2c1CCC2 | nt | nt | 0.6% | nt | nt | ? | -2.5%
O=C1[C@H](Cc2ccccc2)NCCCC[C@H](c2ccc(Cl)cc2)N1Cc1ccc(Cl)cc1 | nt | 76.3 | 4.6% | nt | nt | 2.9% | -0.8%&0.1%
COc1c(F)c(F)c(-c2csc(N)n2)c(F)c1F | nt | -7.6 | 8.2% | nt | nt | -5.5% | -1.1%
O=c1cc(O)nc(-c2ccc(Cl)cc2)s1 | 17.8µM* | 19.5 | 9.2% | 9.6 | -2.4 | ? | nt
CCc1nc2ccccc2c(C(=O)OCC(=O)N(C)Cc2ccccc2)c1C | nt | 7.3 | ? | nt | nt | -6.2% | -1.2%
O=C1c2ccccc2NC2(CCCCC2)N1c1ccc(O)cc1 | 16.7% | ? | 1.3% | 0.3 | 4.0 | -9.1% | ?
CCc1ccc(OCC(=O)N2CCN=C2c2ccccc2)cc1 | 2.4% | -3.1 | -1.4% | 4.9 | -4.6 | -41.0%[inhibitor] | 0.5%
COC(=O)c1c(N)sc(C(=O)NCCc2ccccc2)c1C | -72.6% | 56.2 | -3.1% | -3.2 | 3.6 | 15.6% | nt
CCOC(=O)n1c(=O)n(Cc2ccccc2C)c2ccccc21 | 2.5% | 14.8 | -0.7% | 5.0 | -11.0 | -0.1%[15.4 µM] | nt
C[C@H](NC(=O)C1CC(=O)N(c2ccc3c(c2)OCCO3)C1)C(=O)NCc1ccco1 (some centres not stated) | 2.0% | 18.3 | -6.6% | -0.5 | 8.2 | 4.5% | 1.0%
N#Cc1ccc(C(=O)NCC2CCCCC2)cc1 | 12.9% | -24.0 | 13.0% | 8.3 | -8.7 | -30.0%[inhibitor] | -1.1%
COc1ccc(CNC(=O)C(=O)NCCC2CCCCN2S(=O)(=O)c2ccc(C)cc2)cc1 (configuration not stated) | nt | 28.3 | -9.7% | nt | 5.7 | -38.8%[inhibitor] | 1.7%
O=C(Cn1c2ccccc2c(=O)c2ccccc21)Nc1ccccc1F | 4.9% | -7.9 | 1.9% | 0.6 | 2.3 | -12.5% | 12.6µM*
CC(O)CNCc1ccc(Cl)cc1Cl (configuration not stated) | -0.3% | -4.0 | 5.0% | 0.8 | -0.4 | -20.0% | nt
O=C(c1ccccc1)c1ccc(OC(=O)N2CCCC2)cc1 | -17.0% | -9.1 | -18.4% | 0.3 | 18.7 | 15.3% | 0.9%
N#Cc1ccc(C(=O)OCC(=O)N2CCN(C(=O)c3ccco3)CC2)cc1 | nt | 3.5 | 7.6% | nt | nt | 19.1% | nt
CN1CCN(C(=O)c2ccccc2NC(=O)CCN2C(=O)c3ccccc3C2=O)CC1 | 9.7% | 25.2 | 12.3% | 0.6 | 13.4 | 13.1% | -0.7%
O=C(NCc1ccccc1)C1=C[C@@H](c2coc3ccccc3c2=O)C[C@@H](OCCCCO)O1 | 3.2% | -9.4 | -3.2% | 3.1 | -2.0 | nt | -0.1%
Cc1cccc(C)c1NC(=O)CNC(=O)c1cnccn1 | nt | 12.4 | -0.4% | nt | nt | 1.4%[15.4 µM] | -0.9%
CC(C)[C@H](NC(=O)c1ccc(F)cc1)C(=O)N(C)Cc1cccs1 | nt | -6.8 | 2.5% | nt | 14.7 | 4.2% | 0.1%
Cc1ccc(-n2c(C)cc(/C=C3/C(=N)N4C(c5ccccc5)=CSC4=NC3=O)c2C)cc1 | 3.9% | 2.8 | 1.6% | 5.2 | -0.7 | -0.3% | 2.0%
